# Screening results as filed in PubChem.
# Bm FixLJ act: activators of Burkholderia fixLJ two-component system, primary screen, B. multivorans, GFP reporter; B. multivorans fixK-promoter GFP reporter, 18 h; hits give high values; actives 0.3% (n = 29,000); z-score (test concentration not listed);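 active means replicate mean overnight rise in green fluorescent reporter signal, 3 or more SD over negative controls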;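 further: score is relative to vehicle wells of the plate; 300 nL library stock went into each well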
# * hit, by the source's call; & = joins results of further samples. This is a subset. The share of hits here may be higher or lower than overall.
compound	Bm FixLJ act
CN=C(NC#N)Nc1ccc(C2=NNC(=O)CC2C)cc1 (stereo not drawn)	-1.12
CCCN(CCC)C(=O)C(CCC(=O)O)NC(=O)c1ccccc1 (stereo not drawn)	-2.44
CN(C)CCOC(=O)C(c1ccccc1)C1(O)CCCC1 (stereo not drawn)	-0.31
O=C(O)CCCCCCCC(=O)O	0.04
CN1CCC(=C2c3ccccc3CC(=O)c3sccc32)CC1	-1.21&-1.12
CN1CCN(c2c(F)cc3c(=O)c(C(=O)O)cn4c3c2SCC4)CC1	-1.79
Cc1ccc(Cc2c(C)nc3c(-c4ccccc4)c(C)[nH]n3c2=O)cc1	-0.89
Cc1oncc1C(=O)Nc1ccc(C(F)(F)F)cc1	-0.69
COc1ccc(Cn2c(CCC(=O)Nc3cccc(OC)c3)nc3cccnc32)cc1	-0.8
C#C[C@]1(OC(C)=O)CCC2C3CCC4=C/C(=N/O)CCC4C3CC[C@@]21CC (stereo partly drawn)	1.44
CN(C)CCC[C@@]1(c2ccc(F)cc2)OCc2cc(C#N)ccc21	-1.25
CCCCOC(=O)c1ccc(N)cc1	-0.15
Cc1nc2c([nH]1)c(=O)n(C)c(=O)n2Cc1ccco1	0
NC(=O)NC(=O)Cc1ccccc1	-0.7
CCC(Cc1c(I)cc(I)c(N)c1I)C(=O)O (stereo not drawn)	-2.1
COc1cc(C(=O)NCCCCCC(=O)O)cc(OC)c1OC	-0.66
NC(=O)c1ccc([N+](=O)[O-])cc1Cl	-2.28
Cc1ccsc1/C=C/C1=NCCCN1C	-1.25
CC(C)(C)c1ccc(S(=O)(=O)c2cnc(SCC(=O)Nc3ccc(F)c(Cl)c3)[nH]c2=O)cc1	-2.73
C#C[C@]1(O)CC[C@H]2[C@@H]3CCC4=CC(=O)CC[C@@H]4[C@H]3CC[C@@]21CC	-0.52
CC1CCc2c(N3CCC(O)CC3)c(F)cc3c(=O)c(C(=O)O)cn1c23 (stereo not drawn)	-4.75
O=C(c1ccccc1)c1ccc2n1CCC2C(=O)O (stereo not drawn)	-2.14
O=C1CCc2cc(OCCCCc3nnnn3C3CCCCC3)ccc2N1	-1.11
CN(CCOc1ccc(NS(C)(=O)=O)cc1)CCc1ccc(NS(C)(=O)=O)cc1	-1.05
COC(=O)Nc1nc2ccc(S(=O)c3ccccc3)cc2[nH]1 (stereo not drawn)	-1.39&-0.07

# Three entries from above, set out differently:
> O=C(O)CCCCCCCC(=O)O
  Bm FixLJ act: 0.04

> CN1CCC(=C2c3ccccc3CC(=O)c3sccc32)CC1
  Bm FixLJ act: -1.21&-1.12

> CN1CCN(c2c(F)cc3c(=O)c(C(=O)O)cn4c3c2SCC4)CC1
  Bm FixLJ act: -1.79

# Further compounds
compound	Bm FixLJ act
CCCc1cc(C(N)=S)ccn1	-0.66
CCN(CC)CCOC(=O)C(c1ccccc1)c1ccccc1	0.91
Cc1nc2nc(NC(=O)c3cccc(Cl)c3)[nH]n2c(=O)c1Cc1ccccc1	-1.55
CN(C)C(=N)N=C(N)N	-1.82&-0.66
CC(=O)O[C@@]12CO[C@@H]1C[C@H](O)[C@@]1(C)C(=O)[C@H](O)C3=C(C)[C@@H](OC(=O)[C@H](O)[C@@H](NC(=O)OC(C)(C)C)c4ccccc4)C[C@@](O)([C@@H](OC(=O)c4ccccc4)[C@H]21)C3(C)C	-1.21

# Some of the entries so far, field by field:
CCCc1cc(C(N)=S)ccn1
  Bm FixLJ act: -0.66

Cc1nc2nc(NC(=O)c3cccc(Cl)c3)[nH]n2c(=O)c1Cc1ccccc1
  Bm FixLJ act: -1.55

CC(=O)O[C@@]12CO[C@@H]1C[C@H](O)[C@@]1(C)C(=O)[C@H](O)C3=C(C)[C@@H](OC(=O)[C@H](O)[C@@H](NC(=O)OC(C)(C)C)c4ccccc4)C[C@@](O)([C@@H](OC(=O)c4ccccc4)[C@H]21)C3(C)C
  Bm FixLJ act: -1.21

# Laid out differently: results already given.
CN(C)CCOC(=O)C(c1ccccc1)C1(O)CCCC1 (stereo not drawn)
  Bm FixLJ act: -0.31

COC(=O)Nc1nc2ccc(S(=O)c3ccccc3)cc2[nH]1 (stereo not drawn)
  Bm FixLJ act: -1.39&-0.07
